# CDC25B-CDK2 inh = human CDC25B-CDK2/CyclinA binding inhibition; hit rate 0.72% among 94,000; z-score (concentration not given with the values); AID 1259370; P30305+P24941; HTRF CDC25B-CDK2/CyclinA binding, anti-His/anti-Flag; active compounds read high;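 note: score is relative to mean and SD of negative controls; strong numbers were not always called active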
# TAR Tat displ = HIV-1 TAR-Tat binding disruption | AID 1259389 | z-score (test concentration not listed) | HIV-1 TAR RNA, Tat peptide displacement FRET; active compounds read high | hit rate 0.6% among 100,000;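 note: score is relative to mean and SD of negative controls; some compounds called inactive have numbers as strong as hits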
# An asterisk follows results filed as active; / = not tested or not shown.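 Rule for the calls: active = z-score from 3 up in half or more of its runs; inactive = the rest.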 Random draw from the library; about 0.97% have a hit in one of these screens.
No.	Structure	CDC25B-CDK2 inh	TAR Tat displ
1	CCCCSc1nc2c(c(=O)[nH]1)C(c1cccs1)C(C(=O)OCC)=C(C)N2 (stereo not drawn)	-0.52	0.19
2	CCCCCSc1nc2n(n1)C(c1ccccc1OCC)C1=C(CCCC1=O)N2 (stereo not drawn)	-0.98	0.86
3	COc1ccc(C2=NOC(C(=O)Nc3cc(Br)ccc3O)C2)cc1 (stereo not drawn)	1.23	1
4	CC1CCc2c(sc(NC(=O)Cn3nc(C(F)(F)F)c4c3CCCC4)c2C(N)=O)C1 (stereo not drawn)	-0.99	1.36
5	Cc1ccc(-c2cn3cccnc3n2)cc1NC(=O)Nc1cccc(Cl)c1	-0.96	/
6	CCOC(=O)c1c(C)nn(-c2ccc(NC(=O)c3c(C)noc3C)cc2)c1C	-1.32	/
7	Cc1ccc(C(=O)CSc2nnc3c(n2)[nH]c2ccccc23)cc1	0.34	1.28
8	CCOC(=O)c1cc(C#N)c(Sc2ccccn2)nc1C(F)(F)F	-1.28	/
9	CCc1ccc(S(=O)(=O)NCCc2sc(-c3ccc(Cl)cc3)nc2C)cc1	/	1.15
10	CC(=O)N1CCOc2ccc(S(=O)(=O)N3CCN(c4ccccn4)CC3)cc21	-0.11	0.44
11	COc1ccc(C(=O)CSc2ccc(-c3cccs3)nn2)cc1	/	0.45
12	Cc1cc(C)c(CN2CCCN(Cc3ccc(Cl)cc3)S2(=O)=O)c(C)c1	/	0.01
13	COc1cc(Cl)c(NS(=O)(=O)c2cc(Br)c(Br)s2)c(OC)c1	1.9	/
14	CCN(CC)C1=C(C(=O)c2ccccc2)N(CC(N)=O)S(=O)(=O)c2ccccc21	-0.89	0.93
15	Cc1ccc(C2c3c(-c4cc(C)ccc4O)n[nH]c3C(=O)N2Cc2cccnc2)cc1 (stereo not drawn)	0.04	-0.72
16	CN(C(=O)Cn1c(CN2CCOCC2)nc2ccccc21)c1ccccc1	-1.64	-0.02
17	Cc1c(C(=O)N2CCOCC2)c(S(=O)(=O)NCc2cccs2)c(C)n1C	/	0.12
18	Nc1c(C(=O)Nc2cccnc2Cl)sc2nc3c(cc12)CCCC3	-2.52	/
19	COc1ccccc1OCCn1c(=O)oc2ccccc21	-1.26	5.24
20	CCc1nn2c(=O)cc(COC(=O)C(c3ccccc3)c3ccccc3)nc2s1	/	-0.68
21	COc1cc(/C=c2\sc3nc4ccccc4n3c2=O)ccc1OC(=O)c1ccc(Cl)cc1	-0.99	/
22	Cc1cccc(Nc2c(-c3ccc(C(C)C)cc3)c(=O)c2=O)c1	/	0.96
23	C#Cc1ccc(NC(=O)c2cc(C(F)(F)F)cc(C(F)(F)F)c2)cc1	-0.74	/
24	C=CCNS(=O)(=O)c1cc2c3c(c1)CCC(=O)N3CCC2	/	1.48
25	O=C(NC1CCCCC1)c1ccc(N2CCOc3ccccc32)s1	/	0.52
26	CCOc1ccc(N(C)S(=O)(=O)c2ccc3c(c2)C(C)(C)C(=O)N3C)cc1	/	-0.28
27	CCCCC1=NN(C(=O)c2ccc(Cl)cc2)C(O)(C(F)(F)F)C1 (stereo not drawn)	-1.55	/
28	Cc1nn(-c2nc3ccccc3s2)c2c1C(c1ccccc1Br)CC(=O)N2 (stereo not drawn)	-3.02	-1.3
29	O=C1c2cccnc2C(=O)N1c1cccc(-c2nc3ccccc3c(=O)o2)c1	-0.53	/
30	CC1CCCN(C(=O)C2CCN(S(=O)(=O)c3ccc4c(c3)NC(=O)C(C)S4)CC2)C1 (stereo not drawn)	/	1.43
31	COc1ccc(-n2c(C)c(C)c3c2ncn2nc(-c4ccc(F)cc4)nc32)cc1	-2.81	0.55
32	O=C(c1ccco1)N1CCN(C(=O)c2cnn(-c3ccccc3)c2-n2cccc2)CC1	-1.21	-0.22

# Shown screen by screen: entries from further up.
15. Cc1ccc(C2c3c(-c4cc(C)ccc4O)n[nH]c3C(=O)N2Cc2cccnc2)cc1 (stereo not drawn)
16. CN(C(=O)Cn1c(CN2CCOCC2)nc2ccccc21)c1ccccc1
17. Cc1c(C(=O)N2CCOCC2)c(S(=O)(=O)NCc2cccs2)c(C)n1C

compound no.	15	16	17
CDC25B-CDK2 inh	0.04	-1.64	/
TAR Tat displ	-0.72	-0.02	0.12

# Additional structures follow:
No.	Structure	CDC25B-CDK2 inh	TAR Tat displ
33	CCCCCCOc1ccc(NS(=O)(=O)c2ccc(OC)cc2)cc1	-1.08	0.39
34	CCCc1c(C)nc2ncnn2c1Nc1ccc(Br)cc1	-1.13	-0.17
35	Cc1cc(Nc2ccc(F)cc2)n2cnnc2n1	0.37	1.45
36	CC(Nc1c(-c2ccccc2)c(=O)c1=O)c1ccccc1 (stereo not drawn)	/	1.65
37	CCC12CN3CC(CC)(CN(C1)C3c1ccc(C(C)C)cc1)C2O (stereo not drawn)	-0.96	-0.77
38	CC(C)n1cc(C#N)c(=O)n(Cc2ccccc2)c1=O	-0.4	/
39	Cc1ccc2nc(-n3nc(C)c4c3NC(=O)CC4c3ccc(Br)cc3)sc2c1 (stereo not drawn)	/	1.49
40	N#CC1=C(N)Oc2cc(O)ccc2C1c1ccncc1 (stereo not drawn)	-1.09	/
41	Cc1cc2c(cc1S(=O)(=O)N(CCCN1CCOCC1)Cc1ccco1)OCC(=O)N2	/	0.89
42	Cn1c(=O)n(C)c2cc(C(O)COc3ccc(CNCCc4ccccc4)cc3)ccc21 (stereo not drawn)	-1.92	0.95
43	COc1ccc(C2Nc3ccccc3C(=O)N2Cc2ccccc2)cc1Cn1cc([N+](=O)[O-])cn1 (stereo not drawn)	-2.53	0.97
44	CC(C)NC(=O)N1[C@H](c2cccs2)[C@@H](C)C(=O)[C@@H](C)[C@@H]1c1cccs1	-2.19	1.39
45	CCN(CC)c1c([N+](=O)[O-])c(=O)sc2ccccc12	-0.88	0.84
46	CCC1=C(C)CN(C(=O)NCCc2ccc(S(=O)(=O)NC(=O)NC3CCC(C)CC3)cc2)C1=O (stereo not drawn)	/	2.37
47	CC(C)[C@H]1COC(c2cccc(C3=N[C@@H](C(C)C)CO3)n2)=N1	-1.48	/
48	CC1=C(C(=O)N2CCN(c3ccc(Cl)cc3)CC2)C2(CCC(C)CC2)OC1=O (stereo not drawn)	0.58	/
49	Cc1oc2ccccc2c2nn(C)c(=O)c1-2	-3.62	/
50	CCC1CN(S(=O)(=O)c2ccc3c(c2)CCCC(=O)N3)c2cc(Cl)ccc2O1 (stereo not drawn)	/	0.34
51	Cc1nc2ncnn2c(NCc2ccccc2Cl)c1C	/	0.92
52	Cc1nc2cc(NC(=O)CS(=O)(=O)c3ccc(Cl)cc3)ccc2s1	/	1.56
53	Cc1noc(C)c1CCNC(=O)CCc1c(C)nc2c(c1C)c(=O)n(C)c(=O)n2C	-3.02	-0.62
54	Cc1oc(-c2cccs2)cc1C(=O)NCCNc1nccc(C(F)(F)F)n1	-1.3	/
55	FC(F)(F)c1cc(-c2ccc(Br)cc2)n[nH]1	0.1	/
56	COc1ccc(-n2nnc(-c3nc(-c4ccc(F)cc4)no3)c2N)cc1OC	/	-0.83
57	Cc1cc(C)c(S(=O)(=O)N2CCN(Cc3nc4ccc(C)cc4o3)CC2)c(C)c1	/	2.57
58	COc1ccc(NC2c3ncccc3C(=O)N2c2ccccc2)cc1 (stereo not drawn)	/	1.53
59	CCOC(=O)C(C)NC(=O)CCc1nnc2ccc(N3CCC(C)CC3)nn12 (stereo not drawn)	/	0.39
60	COc1cc(S(=O)(=O)NCc2ccc3c(c2)OCO3)c(OC)cc1Br	0.5	1.57
61	CC(=O)Nc1ccc(S(=O)(=O)c2cc(OC(=O)c3ccco3)ccc2OC(=O)c2ccco2)cc1	0.61	/
62	CC1CCN(c2ncc3c(n2)CCN(Cc2cccc(Cl)c2)C3)CC1	/	0.34
63	Cc1c(C(=O)NCCN2CCc3ccccc3C2)sc2nc3n(c(=O)c12)CCCC3	/	0.52
64	COc1ccc(S(=O)(=O)[C@H]2CS(=O)(=O)C[C@@H]2N2CCN(c3ccccc3F)CC2)cc1	-2.96	2.86
65	CCC(=O)n1c(=O)oc2ccccc21	/	-2.24
66	CC(=O)c1cccc(NC(=O)CCN2C(=O)c3cccc([N+](=O)[O-])c3C2=O)c1	-1.38	/
67	O=C(Nc1cccc(-c2nc3ccccc3o2)c1)c1sc2ccccc2c1Cl	-1.96	/
68	COc1ccc2c(C)c(CC(C)O)c(=O)oc2c1 (stereo not drawn)	-0.97	/
69	O=C(O)CCCNc1ccc([N+](=O)[O-])cc1[N+](=O)[O-]	-2.08	/
70	Cc1ccc2nc(NCc3ccccc3)c3nnnn3c2c1	/	1.16
71	CCOC(=O)Cc1nc2nc(C)cc(=O)n2[nH]1	-0.2	/
72	NS(=O)(=O)c1ccc(Nc2cc(-c3ccco3)cs2)cc1	17.2*	/
73	COc1cc(-c2cc(OC)c3c(C)oc(C)c3c(=O)c2)ccc1OC(=O)c1ccccc1C	0.41	-2.85
74	Cc1nc2nc(Cc3cccc(F)c3)nn2c(N2CCN(c3ccccn3)CC2)c1C	/	1.81
75	CN(Cc1ccccc1)S(=O)(=O)c1ccc(N2CCOCC2)nc1	-0.95	/
76	Cc1ccc(C)c(Cn2cccc2CNS(=O)(=O)c2ccc(C)c(C)c2)c1	/	1.34
77	CC12CCC(C1)C(C)(C)C2NC(=O)C1CCC1 (stereo not drawn)	-1.38	/
78	CCCc1nn2c(=O)cc(CSc3ccccc3NS(C)(=O)=O)nc2s1	/	-1.4
79	Cc1ccc(-c2nn3c(=O)cc(N4CCN(C(=O)C5CCCCC5)CC4)nc3s2)cc1	/	0.6
80	CCOC(=O)C1CCN(c2c(NCCCN3CCC(C)CC3)c(=O)c2=O)CC1	-0.71	0.22
81	CCc1ccc(Nc2nc(=O)[nH]nc2C)cc1	-1.3	1.06
82	CNS(=O)(=O)c1cn(CC(=O)N2CCC(N3CCCCC3)CC2)cc1S(=O)(=O)NC	/	-0.31
83	CC1CC(=O)Nc2cc(S(=O)(=O)Nc3ccc(Br)cc3F)ccc2S1 (stereo not drawn)	/	1.57
84	c1ccc(CCNCCN2CCOCC2)cc1	0.81	1.59
85	CCC(Sc1nc2ncccc2[nH]1)C(=O)NC1CCCC1 (stereo not drawn)	/	1.97
86	CN(CCCn1cnc2c([nH]c3ccc(Cl)cc32)c1=O)C1CCCCC1	-1.63	2.18
87	O=C(c1cnc(N2CCOCC2)nc1)N1CCN(c2ccccn2)CC1	/	1.06
88	O=C(Cn1nc(C(F)(F)F)c2c1CCC2)Nc1cccc(Cl)c1	-1.71	-1.04

# The results go on:
No.	Structure	CDC25B-CDK2 inh	TAR Tat displ
89	Cc1ccc(Cl)cc1N1C(=O)c2c(C)nc3ccccc3c2C1=O	-1.58	2.66
90	Cc1nn(-c2ccc(Br)cc2)cc1-c1noc(C(=O)NCCC(C)C)n1	/	0.06
91	Cc1nc2scc(-c3ccc(Br)cc3)c2c(=O)o1	5.15	/
92	O=C(CSc1ccsc1[N+](=O)[O-])NCc1ccco1	0.96	1.43
93	CC1(C)CC(=O)C2=C(C1)Nc1ncnn1C2c1ccccc1Cl (stereo not drawn)	/	1.39
94	Fc1cc(Cl)ccc1CSc1nc2ncc(Br)cc2[nH]1	-0.65	0.64
95	COC(=O)C1=C(C)NC2=C(C(=O)CCC2)C1c1ccc(OC(C)=O)cc1 (stereo not drawn)	-1.32	-0.46
96	O=S(=O)(c1cc(-c2nnc(-c3ccccc3)o2)ccc1F)N1CCN(c2ccc(F)cc2)CC1	/	1.56

# Among those listed so far, these have a cyano group:
No.	Structure	CDC25B-CDK2 inh	TAR Tat displ
8	CCOC(=O)c1cc(C#N)c(Sc2ccccn2)nc1C(F)(F)F	-1.28	/
38	CC(C)n1cc(C#N)c(=O)n(Cc2ccccc2)c1=O	-0.4	/
40	N#CC1=C(N)Oc2cc(O)ccc2C1c1ccncc1 (stereo not drawn)	-1.09	/

# New compounds follow
No.	Structure	CDC25B-CDK2 inh	TAR Tat displ
97	O=S(=O)(O)c1cccc2cccc(Cl)c12	-0.35	/
98	CC1CCN(CCNS(=O)(=O)c2ccc3c(c2)NC(=O)CC(C)S3)CC1 (stereo not drawn)	/	0.58
99	O=C1CCCc2cc(S(=O)(=O)Nc3ccc(Oc4ccc(Cl)cc4)cc3)ccc2N1	/	0.35
100	O=C1NC(C2CC=CCC2)Nc2ccccc21 (stereo not drawn)	-2.42	/
101	Cc1ccc2nc(-c3c[nH]c4ccccc34)c(NC3CCCCC3)n2c1	0.01	/
102	O=C(CC1(O)C(=O)N(Cc2ccc(Cl)cc2)c2ccccc21)c1cccs1 (stereo not drawn)	0.11	0.39
103	Cn1cnc(S(=O)(=O)N2CCCc3ccccc32)c1	/	2.03
104	O=C1CC(c2ccc(-c3ccccc3)cc2)C2=C(CCCC2=O)N1 (stereo not drawn)	0.15	-1.92
105	CCSc1nc(C2CC2)cc(-c2cccs2)c1C#N	-9.69	/
106	CC(C)(C)C(=O)NNC(=O)c1cc(C(C)(C)C)nn1Cc1ccccc1	-1.44	/
107	Cc1nnc(Sc2nc([N+](=O)[O-])nn2C)s1	-1.42	0.55
108	Cn1c2c(c(=O)n3ncnc13)CCCC2	-0.17	/
109	COC(=O)c1ccc(C2C=C(C(=O)O)Nc3nnnn32)cc1 (stereo not drawn)	/	-0.82
110	CC(C)C(=O)N1c2ccccc2NC2=C(C(=O)CC(C)(C)C2)C1c1cccc(F)c1 (stereo not drawn)	-0.32	0.03
111	O=C(CSc1nc2c(c(=O)[nH]1)CCCC2)Nc1ccccc1Sc1ccccc1	-2	0.17
112	Cc1nnc2c(NC3CCCC3)nc3ccc(C(=O)c4ccccc4)cc3n12	/	0
113	Cn1c(=O)c2c(SCC(=O)Nc3nccs3)nc(-c3cccs3)nc2n(C)c1=O	0.61	/
114	Cc1ccc(NS(=O)(=O)c2cccs2)cc1	-0.06	0.34
115	O=C(O)CCCC(=O)Nc1nc2n(n1)C(c1ccccc1)C=C(c1ccccc1)N2 (stereo not drawn)	-1.29	/
116	O=C(CSc1ccccc1C(=O)O)NCc1ccc2c(c1)OCO2	0.69	/
117	CCOCCCNC(=O)CCCc1nnc2n3nc(C)nc3c3ccccc3n12	-1.55	-0.5
